LANA-H2B inh = blocks KSHV LANA binding to histone H2A/H2B. inhibition, % (test concentration not listed). Q9QR71. AID 2629. cell-free LANA-H2A/H2B peptide, fluorescence polarization. 0.6% of 320,000 active; in the data active = inhibition mostly above about 10%, no sharp cut-off; inactive = mostly below about 6.7%;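 note: stock transfer was 7.5 nL into about 10 µL; 0% = median of vehicle wells and 100% = median of positive control wells; one replicate is shown; the record names a cut of 25% in any replicate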
Target sequence (Q9QR71 whole entry, looked up): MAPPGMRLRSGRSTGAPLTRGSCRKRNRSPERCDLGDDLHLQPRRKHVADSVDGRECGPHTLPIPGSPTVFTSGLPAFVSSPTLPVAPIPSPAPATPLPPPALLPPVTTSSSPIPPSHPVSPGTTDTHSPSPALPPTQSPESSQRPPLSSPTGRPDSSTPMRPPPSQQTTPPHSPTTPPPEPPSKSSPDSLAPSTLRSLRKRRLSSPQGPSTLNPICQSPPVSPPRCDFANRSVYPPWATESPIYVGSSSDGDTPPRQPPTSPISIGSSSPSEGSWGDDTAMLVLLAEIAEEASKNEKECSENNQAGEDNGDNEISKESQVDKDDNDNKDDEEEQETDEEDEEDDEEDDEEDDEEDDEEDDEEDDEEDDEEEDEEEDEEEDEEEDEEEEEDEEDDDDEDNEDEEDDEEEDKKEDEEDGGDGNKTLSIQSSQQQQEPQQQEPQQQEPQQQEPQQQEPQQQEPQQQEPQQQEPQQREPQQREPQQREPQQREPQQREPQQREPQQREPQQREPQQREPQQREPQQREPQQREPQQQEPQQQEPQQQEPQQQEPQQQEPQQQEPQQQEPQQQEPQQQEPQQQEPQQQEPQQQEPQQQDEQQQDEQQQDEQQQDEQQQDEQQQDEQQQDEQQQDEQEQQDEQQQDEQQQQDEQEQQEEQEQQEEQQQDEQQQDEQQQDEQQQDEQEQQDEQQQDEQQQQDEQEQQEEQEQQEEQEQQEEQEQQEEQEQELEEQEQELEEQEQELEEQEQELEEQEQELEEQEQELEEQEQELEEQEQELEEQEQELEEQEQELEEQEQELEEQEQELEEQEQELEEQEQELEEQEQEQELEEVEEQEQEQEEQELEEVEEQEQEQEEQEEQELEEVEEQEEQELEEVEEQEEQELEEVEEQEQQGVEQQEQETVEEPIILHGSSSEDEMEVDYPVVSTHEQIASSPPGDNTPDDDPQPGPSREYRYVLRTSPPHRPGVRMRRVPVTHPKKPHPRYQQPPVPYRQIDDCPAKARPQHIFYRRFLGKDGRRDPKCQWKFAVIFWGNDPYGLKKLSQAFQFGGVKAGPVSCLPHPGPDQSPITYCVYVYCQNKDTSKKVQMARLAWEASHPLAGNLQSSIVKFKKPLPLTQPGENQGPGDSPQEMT
Ecoli rRNA inh = inhibitors of bacterial rRNA selective over humanized ribosomes; GFP signal change (wild-type ribosome), % (no concentration beside the values); 1.6% of 350,000 active; E. coli WT GFP vs humanized-ribosome RFP mutants, fluorescence, 24 h; active compounds read low; DMSO median 0, no signal -100;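 active = significant combined selectivity score with lowered wild-type GFP, culture density cut under 30%, mutant RFP and density less affected; inactive = any of these conditions unmet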; note: one replicate is shown; some compounds called inactive have numbers as strong as hits
Calb FLC = affects C. albicans growth with fluconazole; C. albicans CaCi-2 (fluconazole-resistant clinical isolate) + fluconazole, Alamar Blue growth, 48 h; growth inhibition, % (concentration not given with the values); 0.57% of 300,000 active; AID 1979;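 active = most replicates above 75%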;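 note: all wells also contain fluconazole at 8 µg/ml as a sub-toxic cotreatment; 0% = median of DMSO wells and 100% = median of geldanamycin control wells; wells of about 8 µL received 7.5 nL stock; the first replicate is given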
Beta cell apopt = beta cell apoptosis inhibition; INS-1E cytokine-induced death, ATP luminescence, 48 h; percent of positive-control rescue, neutral wells zero; protection from apoptosis, % (concentration not given with the values); AID 435005; 0.8% of 300,000 active;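 active = all replicates at 75% or more, or half of them and the mean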;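 note: 0% = cytokine-treated negative control wells and 100% = positive control rescue; higher means more ATP so stronger rescue from cytokine killing; wells of about 40 µL received 100 nL stock; the first replicate is given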
T cruzi inh = blocks replication of Trypanosoma cruzi; T. cruzi beta-gal in NIH3T3, luminescence, 90 h; inhibition, % (no concentration beside the values); 1.4% of 300,000 active; AID 1885;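 active = mean inhibition across valid replicates above about 55%, limit read from the data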;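 note: signal also drops with host cell toxicity which is not excluded here; 0% = plate median of DMSO wells and 100% = zero luminescence signal; higher percent means less beta-gal luminescence so fewer parasites; stock transfer was 50 nL into about 50 µL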
A1 inh = inhibitors of the anti-apoptotic protein A1, read as caspase activation; caspase activation, % (no concentration beside the values); MEF A1-2A-BIM cells, Caspase-Glo 3/7 luminescence, 3 h; percent of clofoctol response, vehicle zero; 0.066% of 330,000 active; AID 2462;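 active = over half of replicate activation scores above 10%, or exactly half above 10 with the replicate mean above 10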;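 note: wells of about 30 µL received 50 nL stock; many hits fall short of the cut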
B2AR ag = agonists of human beta-2 adrenergic receptor inducing internalization; Am2.2-beta2AR cells, FAP receptor internalization, flow cytometry; reference of the scale not given here; 0.43% of 340,000 active; P07550; response, % (no concentration beside the values); AID 504454;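 active = response above a set limit, near 3 SD of response in nonfluorescent compounds, cut at about 42% in these data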;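 note: stock transfer was 100 nL into about 11 µL; a reference agonist was the positive control; negative values mostly stem from fluorescent compounds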
ALR H2O2 inh = blocks human ALR sulfhydryl oxidase activity; P55789; purified ALR, DTT oxidation, H2O2 HRP-luminol luminescence; inhibition, % (concentration not given with the values); 3.8% of 290,000 active; AID 485317;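 active = mean and each replicate at 75% or more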;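 note: stock transfer was 7.5 nL into about 7.5 µL; 0% = neutral wells and 100% = wells with inactivated enzyme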
Ecoli rRNA inh OD600 = second read-out of Ecoli rRNA inh, no call of its own (marks repeat the call); OD600 change, %; measured here: OD600 growth;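 optical density of the mix in the first replicate; 0 = DMSO median and -100 = no signal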
Ecoli rRNA inh RFP = further read-out of Ecoli rRNA inh, marked with its call; RFP signal change, %; measured here: RFP humanized mutant strains;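 first replicate; 0 = DMSO median and -100 = no signal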
Active calls of the source: *; / = not tested or not shown. A portion of the library; the hit share may differ from the screen's.

SMILES	LANA-H2B inh	Ecoli rRNA inh	Ecoli rRNA inh OD600	Ecoli rRNA inh RFP	Calb FLC	Beta cell apopt	T cruzi inh	A1 inh	B2AR ag	ALR H2O2 inh
Cc1onc(-c2ccccc2)c1C(=O)NCc1ccccn1	2.3	/	/	/	6	-2	-3	-1.1	5	0
Cn1c(=O)c2c(ncn2CC(=O)OCc2ccccc2)n(C)c1=O	0.7	/	/	/	15	-2	-15	-0.6	-2	-17
Fc1cc(F)c(F)c(SCCc2ccncc2)c1F	-1.6	/	/	/	-10	-31	7	-0.2	-1	-3
CC/C(=N/NC(=O)c1ccc2c(c1)OCO2)c1ccccc1O	-2.8	-15	-17	2.5	31	/	18	-0.7	8	7
Cc1ccc(C(=O)N2CCN(Cc3ccccc3)CC2)o1	1.7	4	12	-2.0	-8	-4	-2	-0.7	9	-11
COc1ccccc1N1CCN(C(=O)c2ccc(C(C)(C)C)cc2)CC1	-3.7	/	/	/	8	3	16	3.4	3	3
Cc1ccc(S(=O)(=O)N2CCOCC2)cc1C(=O)NCc1cccs1	-1.9	6	5	1.3	-3	1	0	0.7	9	19
COC(=O)c1nc(NC(=O)c2ccc(Br)cc2)n[nH]1	2.4	/	/	/	6	-7	-14	0.0	-8	/
CCCC(C)NC(=O)COc1ccc(S(=O)(=O)c2ccc(OCC(=O)NC(C)CCC)cc2)cc1 (stereo not drawn)	-2.0	/	/	/	-8	1	5	0.1	4	-6
CCCNC(=S)NNC(=O)c1cc(-c2cccnc2)nc2ccccc12	0.2	6	15	0.3	18	3	1	-0.8	9	8
O=C(c1ccc2c(c1)C(=O)N(CCCO)C2=O)c1ccc2c(c1)C(=O)N(CCCO)C2=O	2.1	/	/	/	/	-6	/	1.5	-9	-14
Cc1ccc(Cl)cc1N1CCN(CC(O)COC(C)C)CC1 (stereo not drawn)	3.4	-15	-6	1.0	3	-4	6	-0.1	-9	/

A portion taken from the entries so far, for reference:
SMILES	LANA-H2B inh	Ecoli rRNA inh	Ecoli rRNA inh OD600	Ecoli rRNA inh RFP	Calb FLC	Beta cell apopt	T cruzi inh	A1 inh	B2AR ag	ALR H2O2 inh
O=C(c1ccc2c(c1)C(=O)N(CCCO)C2=O)c1ccc2c(c1)C(=O)N(CCCO)C2=O	2.1	/	/	/	/	-6	/	1.5	-9	-14
Cc1ccc(Cl)cc1N1CCN(CC(O)COC(C)C)CC1 (stereo not drawn)	3.4	-15	-6	1.0	3	-4	6	-0.1	-9	/

Carrying on:
SMILES	LANA-H2B inh	Ecoli rRNA inh	Ecoli rRNA inh OD600	Ecoli rRNA inh RFP	Calb FLC	Beta cell apopt	T cruzi inh	A1 inh	B2AR ag	ALR H2O2 inh
Cc1ccccc1C(=O)Oc1ccc(-c2csnn2)cc1	-2.2	12	14	2.4	1	3	-19	0.3	-2	-14
Cc1cc(N/N=C/c2cccc(Br)c2)nc2ccccc12	0.2	/	/	/	18	6	30	-0.9	9	-17
COc1ccc(-c2nc(N)n[nH]2)cc1OC	1.9	/	/	/	4	0	-1	0.3	2	3
COC(=O)CSc1nc(C2CC2)cc(C(F)(F)F)c1C#N	2.7	/	/	/	5	-1	5	0.1	1	/
COc1ccc(CC2(CO)CCN(Cc3ccc(NC(C)=O)cc3)CC2)cc1	-2.1	11	3	2.0	-4	0	5	0.3	-1	-4
CC1(C(=O)O)CCC(C(=O)Nc2ccc(S(N)(=O)=O)cc2)C1(C)C (stereo not drawn)	0.1	/	/	/	-3	-2	-1	-1.1	2	-1
CC(C)(C)N1CC(C(=O)O)CC1=O (stereo not drawn)	0.3	21	13	1.9	3	-9	-2	-0.2	-4	-12
O=C(NCC1CCCO1)c1ccc2c(=O)n(Cc3ccco3)c(SCC(=O)N3CCCC3)nc2c1 (stereo not drawn)	1.9	/	/	/	9	4	8	-0.1	-2	1
CCCCC(=O)NC(Nc1nc(C2CC2)cs1)(C(=O)OCC)C(F)(F)F (stereo not drawn)	-0.4	/	/	/	-16	1	3	-0.1	-10	8
C/C(=N\NC(=O)C(N)=O)c1cccc(C(F)(F)F)c1	2.7	5	-3	-2.5	-7	/	-3	-0.8	-9	7
COc1ccccc1N1CCN(C(c2cccs2)C(C)NC(=O)c2cccnc2)CC1 (stereo not drawn)	-1.1	-3	-9	1.0	5	1	0	1.2	3	98*
COc1ccc(C2/C=C\CN(S(=O)(=O)/C=C/c3ccccc3)[C@H](Cc3ccccc3)C(=O)N2Cc2ccc(F)cc2)cc1 (stereo partly drawn)	-1.8	/	/	/	5	-5	26	-0.2	/	28
CCN(CC)CCOC(=O)c1ccc([N+](=O)[O-])cc1	-9.1	3	3	0.0	-7	-10	12	0.7	3	-23
O=C(N1CCCCC1)C12CC3CC(C1)CC(C(=O)N1CCCCC1)(C3)C2	-1.6	/	/	/	-2	-6	2	-0.5	-2	-12
CC(C)CC(=O)N(c1nnc(-c2cccnc2)s1)C1CCCC1	1.8	1	5	5.3	-1	1	11	0.2	-4	-12
COC(=O)c1ccc(CSc2nc3ccccc3c(=O)n2-c2ccccc2)o1	-0.3	/	/	/	14	1	15	0.3	15	-6
Cc1cccc(/C=N/NC(=O)c2cc(-c3cccnc3)nc3ccccc23)c1	2.9	12	19	0.1	13	-6	-3	1.5	-6	-1
O=C(CN1CCCCC1)N/N=C/c1cc2ccccc2nc1Cl	-4.4	-4	2	0.6	-16	/	-29	2.0	-3	-1
Cc1ccc(S(=O)(=O)NC2CC(=O)N(c3ccc4c(c3)OCCO4)C2)cc1 (stereo not drawn)	1.9	-4	-3	-1.9	0	0	-3	0.9	-11	/
CCN(CC)C(=O)CSc1nnc(-c2cc3ccccc3cc2O)n1CC	-2.6	/	/	/	5	1	4	2.0	-1	85*
CC(=O)Nc1ccc(S(=O)(=O)NCCc2c[nH]c3ccc(C)cc23)cc1	3.6	-1	-3	-1.0	9	/	-30	0.8	4	50
CCOc1ccc(OCc2ccc(C(=O)NCC3CCCO3)o2)cc1 (stereo not drawn)	1.7	/	/	/	2	2	4	-1.2	-5	9
COc1cc2c(cc1OC)CN(C(=O)CCOc1ccccc1)CC2	1.4	-1	-9	-1.2	-3	-8	1	0.1	-9	/
CCc1ccc(NC(=O)CN2CCc3ccccc3C2)cc1	0.1	/	/	/	2	10	0	-0.7	8	/
COc1ccc(CCNC(=O)CSc2nnc3ccc(-c4cccnc4)nn23)cc1OC	-1.2	2	5	1.8	-1	0	-6	0.1	-7	-10
c1ccc(C(c2ccccc2)c2noc(CN3CCN(CC4CC4)CC3)n2)cc1	5.0	8	7	-2.2	-2	-7	11	0.8	7	-4
CCCOc1cc2c(C#N)c(N3CCCC3)nc(N)c2c(N)n1	-4.7	2	9	0.7	-2	3	10	0.1	6	60
Fc1ccc2nc(C3CCCCN3Cc3nc(CC4CC4)no3)[nH]c2c1 (stereo not drawn)	0.3	9	12	3.6	-4	/	4	1.4	4	-21
O=C(CNC(=O)c1ccc(Cl)cc1)OCCCOC(=O)CNC(=O)c1ccc(Cl)cc1	-0.8	2	-3	3.3	4	-1	-3	1.1	4	2
c1ccc(CCNc2cnccn2)cc1	-0.3	6	4	-0.9	-44	-1	-12	-2.0	2	2
NC(=O)C1CCN(c2ccc(S(=O)(=O)N3CCCCC3)cc2[N+](=O)[O-])CC1	-1.3	1	13	9.4	/	-2	/	0.0	-7	-3
CCCCCCCCCCOC(=O)C[N+](C)(C)CC1CCCCC1O (stereo not drawn)	7.3	/	/	/	-8	-8	-18	-0.1	25	-34
COc1ccc(Br)cc1/C=N/N1C(=O)CSC1=S	-4.2	-5	-5	-2.8	-1	0	-9	-1.0	2	-7
Cc1noc(C)c1COC(=O)C1CCN(S(=O)(=O)c2c(Cl)cccc2Cl)CC1	-2.2	-20	-28	3.5	7	-4	-6	-0.3	4	6
COc1ccc(CNC(=O)C(C)OC(=O)CO/N=C(\C)c2ccc3c(c2)OCO3)cc1 (stereo not drawn)	0.6	-8	-8	3.7	-7	-4	-9	1.9	5	-2
CCCc1nc(SCC(=O)Nc2ccccc2)c2c(=O)n(C)c(=O)n(C)c2n1	1.1	6	13	-3.8	-1	12	6	0.6	11	-13
CCOC(=O)[C@@H]1[C@H]2COc3ccc(Br)cc3[C@@H]2N2C(=O)N(c3ccc(C)cc3)C(=O)[C@]12C	3.1	9	3	0.8	18	-1	1	0.2	-4	-14
NS(=O)(=O)c1cc(C(=O)NNC(=O)c2ccc3c(c2)OCO3)ccc1Cl	-1.0	7	11	-0.8	/	1	/	2.3	0	13
COc1ccccc1N(Cc1ccccc1)S(=O)(=O)c1cccc(C(=O)Nc2ccc(C(C)=O)cc2)c1	-3.5	/	/	/	-2	0	32	-0.4	11	-3
C=CCC1(C#N)C(SC)=NC2=C(C(=O)CC(C)(C)C2)C1c1ccc(Br)cc1 (stereo not drawn)	-1.4	/	/	/	8	/	32	0.5	-2	0
CCC(=O)NC(=S)Nc1ccc(NC(=O)COc2ccc(Cl)cc2Cl)cc1	1.4	-6	-3	11	-8	2	53	1.0	-4	-8
COc1ccc(CCN2CC(C(=O)NCc3nc(C)c(C)s3)CCC2=O)cc1 (stereo not drawn)	1.8	0	-5	2.6	7	1	10	-1.4	-3	-2
O=C(NN(CC(O)COc1ccccc1)CC(O)COc1ccccc1)c1ccccc1 (stereo not drawn)	-4.8	/	/	/	-6	4	-2	-0.6	11	18
N#CCC(=O)N1CCN(C=O)CC1	-0.6	9	3	2.4	-11	-1	-10	-0.8	15	-4
CCCCC(=O)Nc1cccc(NC(=O)CC)c1	4.1	/	/	/	-11	1	-2	0.5	-6	0
COC/C=C/C1=CC2=CC(=O)C(C)(OC(=O)c3ccco3)C(=O)C2=CO1 (stereo not drawn)	-1.9	/	/	/	/	-6	/	0.1	/	-3
CCCc1cc(N2CCCC(C(=O)Nc3c(OC)cccc3OC)C2)n2ncnc2n1 (stereo not drawn)	0.7	/	/	/	-3	-2	-15	-0.5	-4	-2
Cc1ccc(NC(=O)CSc2ncnc3ccccc23)cc1S(=O)(=O)N1CCCCC1	-4.2	/	/	/	-7	-5	-2	1.1	-8	59
Cc1ccc(NC(=O)C(=O)NN=C2CCCC2)cc1C	5.2	1	5	-0.2	-1	2	-10	-1.0	-5	-13
COc1ccccc1-c1nc2n(n1)C(c1ccc(Cl)cc1)C(C(N)=O)=C(C)N2 (stereo not drawn)	0.5	/	/	/	-10	7	-9	-0.1	9	6
CS(=O)(=O)CCC(C(=O)N1CCOCC1)N1C(=O)c2cc(Cl)c(Cl)cc2C1=O (stereo not drawn)	-1.8	/	/	/	-43	-5	0	0.6	-14	/
O=c1n(-c2ccccc2)c(=O)n2n1CCCC2	0.8	/	/	/	13	/	8	-1.0	-2	-8
COC(=O)c1cc(S(=O)(=O)NCc2cccc(OC)c2)cn1C	-1.0	4	0	0.3	0	-1	0	1.8	-11	14
O=C(CCNC(=O)c1ccccc1)NNC(=O)c1ccccc1Br	4.1	4	7	-1.6	/	1	/	0.7	-4	-1
CCCCN1C(=O)C(=O)NC[C@@H]1C(C)CC (stereo partly drawn)	2.0	5	1	0.0	-4	-11	1	0.4	-1	/
c1ccc2c(CSc3ncnc4nc[nH]c34)cccc2c1	-1.1	-31*	-32*	-8.5*	5	-1	-6	0.4	10	98*
N/N=C1\CCCc2c1[nH]c1ccc([N+](=O)[O-])cc21	-8.0	-4	-22	-4.9	4	1	-2	-0.6	-2	/
CCCCN(C(=O)c1cc(CC)c(C)s1)c1c(N)n(CC(C)C)c(=O)[nH]c1=O	4.0	-5	0	0.5	-5	3	3	0.1	-2	-6
